Rango-impB inh: inhibitors of Rango-importin beta complex formation; Rango CFP/YFP FRET sensor + importin beta, 45 min; Potency, µM (series often up to 92.2 µM), inactives show top-dose inhibition of complex formation; 0.031% of 340,000 active; active = rising FRET ratio curve, often small or poorly fitted; inconclusive = mostly compound fluorescence or quenching in the first reads; inactive = flat curves in all reads;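 note: potency is the fitted concentration of half-maximal effect; 0% = DMSO wells and 100% = buffer wells lacking importin beta; nearly all actives have a fitted effect of over 15% in size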
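Inhibition scored from the CFP 486 nm/YFP 530 nm FRET ratio 45 min after adding 0.125 microM importin beta to 50 nM Rango biosensor preincubated 5 min with compound (room temperature, PBS with DTT, Tween-20, BSA). No-importin wells as positive control.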
miR-21 FLuc: miR-21 reporter, rising signal; HeLa miR-21 FLuc reporter, luciferase, 48 h; Potency, µM (titrated, usually from 38.3 µM), for the others: at the top dose reporter change, positive = more light; 340,000 tested, under 10 active; AID 2288; active = well fitted rising curve with a large enough effect; inconclusive = small, poorly fitted or top-dose-only effect; inactive = no such curve, though single readings can be large or run the other way;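 note: % of control where 0% means no effect; miR-21 action dims this reporter so a rising signal means less miR-21 action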
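HeLa cells stably expressing CMV-driven firefly luciferase with a downstream miR-21 binding sequence, endogenously expressing miR-21, were treated with titrations (up to about 40uM final) for 48 hours at 37 degree Celsius. Luciferase luminescence was read after lysis.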
Rango release inh: prevents RanGTP from dissociating the Rango-importin beta complex. O95149+P62826. 0.071% of 340,000 active. Biochemical FRET Rango-importin beta, RanGTP-induced dissociation. Potency, µM (titrated, usually from 46.1 µM), without a hit: top-dose activity change, negative = inhibition; active means falling FRET ratio curve, often poorly fitted, with flat reads before Ran was added; inconclusive means other falling curves, or compound fluorescence or quenching; inactive means flat or rising ratio curve;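 note: potency is the fitted concentration of half-maximal effect; % of control where 0% means no effect; nearly all actives have a fitted effect of over 45% in size; -100% = wells without RanGTP and RCC1; the record marks most hits as doubtful in a second field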
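FRET read at 45 min, room temperature: inhibitors block the CFP/YFP signal rise when RanGTP (0.6 uM Ran, 2 mM GTP, 0.2 uM RCC1) frees Rango (0.1 uM) from importin beta (0.25 uM). Pre-read after 5 min compound exposure flags interference.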
GLA inh pH 4.5: blocks human alpha-galactosidase A at pH 4.5; 230,000 tested, under 10 active; AID 1467; activity change, negative = inhibition, % at 105 µM; purified enzyme, 4-MU-alpha-Gal fluorescence, pH 4.5; inconclusive = small, poorly fitted or top-dose-only inhibition, or a rising curve; inactive = flat fitted curve, though single readings scatter; no compound was filed as active;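 note: 0% = full activity with enzyme and -100% = basal without enzyme; dose as in the result columns while the protocol names 77 µM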
Target sequence (P06280 whole entry, looked up): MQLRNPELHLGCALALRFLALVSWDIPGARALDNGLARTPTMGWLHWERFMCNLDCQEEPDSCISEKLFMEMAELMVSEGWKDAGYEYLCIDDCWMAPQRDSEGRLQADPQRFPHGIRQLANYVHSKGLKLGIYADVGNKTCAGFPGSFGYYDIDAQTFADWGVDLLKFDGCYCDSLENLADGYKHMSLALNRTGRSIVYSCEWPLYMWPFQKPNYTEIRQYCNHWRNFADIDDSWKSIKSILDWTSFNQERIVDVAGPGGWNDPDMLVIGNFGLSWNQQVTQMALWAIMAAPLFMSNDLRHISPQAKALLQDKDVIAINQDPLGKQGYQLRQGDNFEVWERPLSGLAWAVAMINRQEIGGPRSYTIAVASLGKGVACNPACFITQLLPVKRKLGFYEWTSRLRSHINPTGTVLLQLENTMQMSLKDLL
Active calls of the source: *; ? = inconclusive; · = no result given; & = joins results of further samples; [ ] = dose if it differs, or a comment. Only part of the results is shown; the hit share may differ from the screen's.

cpd | SMILES | Rango release inh | miR-21 FLuc | Rango-impB inh | GLA inh pH 4.5
1 | O=C(Nc1nnc(S(=O)(=O)N2CCCCCC2)s1)c1ccccc1 | -9% | -34%&-32% | 1.7% | ·
2 | COc1ccccc1N(CC(=O)Nc1ccccc1C)S(C)(=O)=O | 13% | -9% | 2.8% | 6
3 | COc1ccc(C(CNC(=O)c2ccc(Cl)c(NC(=O)c3cccs3)c2)N2CCCC2)cc1 (centres undefined) | -9% | · | -1.5% | ·
4 | CC(C)c1ccc(NC2CCCN(C(=O)c3ccc(Cn4cnnn4)cc3)C2)cc1 (centres undefined) | 5% | 20% | -0.4% | ·
5 | Fc1ccccc1N1CCN(CC2CC3C=CC2C3)CC1 (centres undefined) | -12% | -16% | 8.8% | -4
6 | CN1C(=O)c2ccccc2C(C(=O)O)C1c1cccc(F)c1 (centres undefined) | -1% | -5% | -2.8% | -1
7 | O=C(Nc1ccc(OC(F)(F)F)cc1)C1CCCN(C(=O)c2ccc(Cl)cc2)C1 (centres undefined) | 0% | · | 0.2% | ·
8 | CCCc1cc(=O)[nH]c(SCC(=O)Nc2nc3ccc(OCC)cc3s2)n1 | 9% | -33% | ? | -4
9 | c1ccc(-c2cc(-c3ccccc3)[nH]n2)cc1 | 0% | -72% | 0.3% | ·
10 | CNS(=O)(=O)c1cc(NC(=O)c2cnc(SC)n2-c2ccccc2)ccc1C | -2% | 0% | 0.4% | ·
11 | O=C(NCCCN1CCCCC1)C1(S(=O)(=O)c2ccc(Cl)cc2)CC1 | -7% | -1% | 0.1% | 1
12 | C[n+]1ccn(CC(=O)c2cc(C(C)(C)C)c(O)c(C(C)(C)C)c2)c1 | -14% | 1% | -0.7% | ·
13 | Cc1cc(C)n(-c2ccc(C(=O)Nc3nnc(C)s3)cc2)n1 | -3% | -7% | -1.5% | 1
14 | CCCn1c(N)c(N(CCOC)C(=O)/C=C/c2cccc(Cl)c2)c(=O)[nH]c1=O | 4% | -1% | 1.6% | 6[21.1 µM]
15 | COCCNC(=O)C1CC(=O)N(C2CCCCC2)C1 (centres undefined) | -3% | -3% | 1.1% | -2
16 | Cc1cc(OCC(=O)NCc2ccccn2)c2c(C)c(C)c(=O)oc2c1 | 16% | 5% | 0.7% | ·
17 | Cn1c(-c2ccc3c(c2)OCO3)cc(=O)c2ccccc21 | -12% | -10% | -0.2% | 5&-15
18 | CCCCCn1c(=N)c(S(=O)(=O)c2ccc(Br)cc2)cc2c(=O)n3cccc(C)c3nc21 | -19% | -2% | -2.4% | ·
19 | Cc1cc(-c2ccccc2)nc(=O)[nH]1 | -11% | -5% | -4.7% | -4
20 | Cc1ccc(-c2csc(NC(=O)CSC3=NCCS3)n2)cc1 | 2% | -34% | -1.1% | -10
21 | CCOC(=O)c1ccc(NC(=O)N2CCOCC2)cc1 | -3% | -52% | ? | 4
22 | Cc1ccc(NC(=O)CN2CCCCCC2)cc1[N+](=O)[O-] | -3% | -24% | 0.0% | -1
23 | CCOC(=O)N1CCN(S(=O)(=O)c2ccc(C(=O)Nc3sc4c(c3C(=O)OC)CCN(C)C4)cc2)CC1 | ? | -10% | ? | ·
24 | CC1CCN(C(c2ccc(N(C)C)cc2)c2nnnn2Cc2ccccc2)CC1 (centres undefined) | -10% | -3% | 1.0% | -2

Reformatted: 16 of the compounds above.
Order of results: Rango release inh	miR-21 FLuc	Rango-impB inh	GLA inh pH 4.5
6: CN1C(=O)c2ccccc2C(C(=O)O)C1c1cccc(F)c1 (centres undefined)
    -1%	-5%	-2.8%	-1
7: O=C(Nc1ccc(OC(F)(F)F)cc1)C1CCCN(C(=O)c2ccc(Cl)cc2)C1 (centres undefined)
    0%	·	0.2%	·
8: CCCc1cc(=O)[nH]c(SCC(=O)Nc2nc3ccc(OCC)cc3s2)n1
    9%	-33%	?	-4
9: c1ccc(-c2cc(-c3ccccc3)[nH]n2)cc1
    0%	-72%	0.3%	·
10: CNS(=O)(=O)c1cc(NC(=O)c2cnc(SC)n2-c2ccccc2)ccc1C
    -2%	0%	0.4%	·
11: O=C(NCCCN1CCCCC1)C1(S(=O)(=O)c2ccc(Cl)cc2)CC1
    -7%	-1%	0.1%	1
12: C[n+]1ccn(CC(=O)c2cc(C(C)(C)C)c(O)c(C(C)(C)C)c2)c1
    -14%	1%	-0.7%	·
13: Cc1cc(C)n(-c2ccc(C(=O)Nc3nnc(C)s3)cc2)n1
    -3%	-7%	-1.5%	1
14: CCCn1c(N)c(N(CCOC)C(=O)/C=C/c2cccc(Cl)c2)c(=O)[nH]c1=O
    4%	-1%	1.6%	6[21.1 µM]
15: COCCNC(=O)C1CC(=O)N(C2CCCCC2)C1 (centres undefined)
    -3%	-3%	1.1%	-2
16: Cc1cc(OCC(=O)NCc2ccccn2)c2c(C)c(C)c(=O)oc2c1
    16%	5%	0.7%	·
17: Cn1c(-c2ccc3c(c2)OCO3)cc(=O)c2ccccc21
    -12%	-10%	-0.2%	5&-15
18: CCCCCn1c(=N)c(S(=O)(=O)c2ccc(Br)cc2)cc2c(=O)n3cccc(C)c3nc21
    -19%	-2%	-2.4%	·
19: Cc1cc(-c2ccccc2)nc(=O)[nH]1
    -11%	-5%	-4.7%	-4
20: Cc1ccc(-c2csc(NC(=O)CSC3=NCCS3)n2)cc1
    2%	-34%	-1.1%	-10
21: CCOC(=O)c1ccc(NC(=O)N2CCOCC2)cc1
    -3%	-52%	?	4

Results in sequence from the entries so far.
GLA inh pH 4.5, compounds 21 to 24 → 4, -1, ·, -2

The results go on.
cpd | SMILES | Rango release inh | miR-21 FLuc | Rango-impB inh | GLA inh pH 4.5
25 | CN(Cc1c(F)cccc1Cl)C(=O)c1cc2ccccc2o1 | -1% | -26% | 4.7% | 7
26 | COCCCNc1nc2nonc2nc1N1CCN(Cc2cccc(C)c2)CC1 | ? | 0% | ? | 2
27 | COc1ccc(N(Cc2ccccc2)S(=O)(=O)c2cccc(C(=O)O)c2)cc1 | 42% | 0% | 3.5% | 2
28 | COc1ccc(NC(=O)[C@@H]2CCCN2C(=O)[C@@H]2Cc3ccccc3CN2C(=O)OC(C)(C)C)cc1 | -8% | -5% | -1.5% | ·
29 | O=C(/C=C/Nc1ccccc1)c1cnc(-c2ccccc2)s1 | -12% | -10% | ? | 9
30 | COc1ccc(NC(=O)C2CC(c3cccc(Br)c3)=NO2)cc1OC (centres undefined) | -2% | 1% | -3.4% | ·
31 | O=c1c(Cl)c(NCCO)cnn1-c1cccc(Cl)c1 | 0% | -39% | 2.3% | -14
32 | CCCS(=O)(=O)N1CCCC(C(=O)Oc2ccc(C)c(C)c2)C1 (centres undefined) | 1% | 1% | -2.4% | ·
33 | COc1ccccc1N1C(=O)c2ccc(C(=O)Nc3cccc(C(C)=O)c3)cc2C1=O | -4% | -3% | 2.1% | ·
34 | CCCOc1ccccc1OCC(=O)Nc1ccc(S(=O)(=O)N2CCCCC2)cc1 | 1% | · | -1.3% | ·
35 | CCCNC(=O)c1cc2c(C(F)(F)F)nn(C)c2s1 | -5% | -17% | -3.3% | 1
36 | Cc1ccc(-c2cc(C(=O)N3CCOCC3)c3cc(C)ccc3n2)cc1 | 1% | -13% | -1.4% | ·
37 | CCOC(=S)SCc1cn2ccc(C)cc2n1 | -15% | -22% | -2.5% | 10
38 | CCC(=O)c1ccc(OCC(=O)N(CC)CC(=O)Nc2ccccc2OC)cc1 | -3% | · | -1.5% | ·
39 | O=C(NNC(=O)c1ccc(-c2ccccc2)cc1)c1ccccc1 | 12% | -43% | -1.2% | -6
40 | COCCn1nnnc1CN1CCC(Cc2ccccc2)CC1 | -3% | 1% | -0.4% | -4
41 | COc1ccc(NC(=O)CN(C)S(=O)(=O)c2cccs2)cc1 | 4% | -30% | 0.5% | 5
42 | COc1ccc(NC(=O)c2ccccn2)cc1OC | -1% | -79% | -0.1% | 0
43 | CCOc1ccc(-c2cc(C(=O)Nc3ccc4c(c3)OCCO4)c3ccccc3n2)cc1 | -12% | -4% | -2.1% | -6
44 | O=C(CNCC1CCCO1)N1CCCCCC1 (centres undefined) | 2% | -1% | -1.8% | 4
45 | CCCCN(CCCNC(=O)Cn1ncc2ccsc2c1=O)Cc1ccccc1 | 8% | 2% | 1.8% | -7
46 | COC(=O)c1ccc2c(=O)n(Cc3ccco3)c(SCC(=O)Nc3cc(C)on3)nc2c1 | 12% | 8% | 0.3% | -1
47 | CCOCCCNC(=O)C(NC(=O)Cc1cccs1)c1ccc(Cl)cc1 (centres undefined) | 4% | 5% | 0.9% | -1
48 | CCc1cccc(NC2c3ccccc3C(=O)N2c2cccnc2)c1 (centres undefined) | 5% | -12% | 0.1% | 1
49 | CCN(CC)S(=O)(=O)c1cccc(C(=O)Oc2cccnc2)c1 | 13% | -1% | -5.1% | -2
50 | CC(C)CC(=O)NC(=S)Nc1ccc(N2CCOCC2)c(Cl)c1 | 0% | -4% | 0.2% | 0
51 | O=C(NC1CCCC1)C(c1ccccc1)N(Cc1ccccc1)C(=O)c1csnn1 (centres undefined) | 1% | -3% | -3.8% | ·
52 | CCOC(=O)N1CCC(Nc2c(N3CCN(c4cc(Cl)ccc4C)CC3)c(=O)c2=O)CC1 | -11% | 21% | -1.3% | -10
53 | CCOC(=O)C1C(c2ccc(C(=O)O)cc2)NC(=O)NC1(O)C(F)(F)F (centres undefined) | 2% | 0% | 1.6% | ·
54 | COc1ccc(OC)c(S(=O)(=O)N2CCC3(CC2)OCCN3S(=O)(=O)c2ccccc2)c1 | -18% | · | 0.2% | ·
55 | COc1ccc(-c2ccc(SCC(=O)NCc3ccc4c(c3)OCO4)nn2)cc1OC | 3% | -26% | -6.7% | -5
56 | COc1ccc(CCNC(=O)Cc2ccc(NS(=O)(=O)c3ccc(F)cc3)cc2)cc1OC | 34% | · | 1.8% | ·
57 | O=C(Nc1ccccc1)N1N=C(c2cccs2)CC1c1cccs1 (centres undefined) | -7% | -14% | -0.4% | 0
58 | CC(C)=CCc1c(C)nc2ccccc2c1C(=O)O | 3% | -2% | ? | -4
59 | CCOc1ccccc1CNC(=O)C1CCC(=O)N1C(C)C (centres undefined) | -4% | 0% | 2.0% | -25
60 | Cn1nc(C(F)(F)F)c(-c2ccccc2)c1NC(=O)c1nccnc1C(=O)O | 30% | 6% | -1.4% | 9
61 | CCn1c(O)c(N=NC(=O)CNC(=O)/C=C/c2ccccc2)c2ccccc21 | -5% | -5% | 2.6% | ·
62 | C[C@@H](C(=O)Nc1ccc2ccccc2c1)[C@@H]1C[C@@]1(C)[C@@H](NC(=O)c1cccnc1)c1ccccc1 | -17% | 0% | 0.5% | 2&-16
63 | COc1ccc(N2CCN(C(=O)COc3ccc4c(C)cc(=O)oc4c3)CC2)cc1 | 2% | 7% | 1.1% | 7
64 | O=C1CC(c2ccccc2)CC(O)=C1C=Nc1ccccc1Cl (centres undefined) | -5% | -2% | -2.8% | 5
65 | Cc1cc(C(=O)NCc2cccs2)c(C)o1 | -18% | -6% | -2.2% | 0
66 | COCCCn1c(SCC(=O)NC2CCCCC2)nnc1-c1ccncc1 | 11% | 0% | -3.2% | -5
67 | O=C(c1ccc(-c2nnc(-c3ccccc3)o2)cc1)N1CCCCCC1 | 0% | -48% | 6.4% | 0
68 | O=C(NCC1CCCO1)C(c1ccc(F)cc1)N(CCCN1CCOCC1)C(=O)c1ccc(-c2ccccc2)[nH]1 (centres undefined) | -16% | -5% | 6.2% | -4[21.1 µM]
69 | COc1ccc(/C(C)=N\NC(=O)CSc2nnc(C)s2)cc1 | -6% | -16% | -0.1% | -3
70 | CC(C)c1ccc(NC(=O)NCc2ccccn2)cc1 | -4% | -51% | 4.2% | ·
71 | Cc1cc(C(=O)C(=O)N(C)C)c(C)n1-c1ccc(Cl)cc1 | 3% | 4% | 5.2% | -1
72 | CC(C)CNC(=O)C(=O)NC1CCCC1 | -12% | · | 5.0% | ·
73 | CCOC(=O)C(C(C)=O)c1nc(C)nc2c1nnn2Cc1ccccc1Cl (centres undefined) | 0% | -6% | -4.6% | -5
